Assay outcomes as filed in PubChem.
UCH37 DUB inh: blocks the human deubiquitinase UCH37 | Q9Y5K5 | purified proteasome/UCH37, Ub-AMC cleavage fluorescence | inhibition, % (no concentration beside the values) | 330,000 compounds, 0.33% hits | AID 588478;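 active means mean of two replicates above 20%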;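 further: 0% = compound-free wells with enzyme and 100% = wells lacking proteasome; stock transfer was 100 nL into about 20 µL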
Target sequence (Q9Y5K5 whole entry, looked up): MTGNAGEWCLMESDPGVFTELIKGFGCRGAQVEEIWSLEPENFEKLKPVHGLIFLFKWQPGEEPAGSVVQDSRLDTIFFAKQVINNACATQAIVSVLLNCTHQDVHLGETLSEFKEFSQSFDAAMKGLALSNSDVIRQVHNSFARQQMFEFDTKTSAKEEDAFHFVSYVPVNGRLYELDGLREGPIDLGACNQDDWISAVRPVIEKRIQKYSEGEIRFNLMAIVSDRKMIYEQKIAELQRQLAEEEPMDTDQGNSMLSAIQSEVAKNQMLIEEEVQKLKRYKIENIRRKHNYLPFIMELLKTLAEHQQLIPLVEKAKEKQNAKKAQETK
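Material: human UCH37 enzyme supplied as purified proteasome complex / Amount: 0.15 nM proteasome as dispensed / Buffer or medium: pH 7.4 Tris-HCl (50 mM) with ovalbumin, ATP-MgCl2, DTT / Times: preincubation 30 min, reaction 25 min, room temperature / Technique: AMC fluorescence from Ub-AMC cleavage, excitation 355 nm, emission 460 nm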
HNF4A DNA FP: change in binding of human HNF4 alpha to DNA. 360,000 compounds, 0.3% hits. P41235. HNF4a-FITC DNA binding, fluorescence polarization, 1 h. activity change, % at 10 µM; in the data active means activity change above about 30%, passing the limit was not always enough;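 further: controls were the assay level and a saturating level of protein; the project sought stronger binding though the title names inhibitors; some compounds called inactive have numbers as strong as hits; positive values seem to mean higher polarization but the record does not say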
B2AR ag: human beta-2 adrenergic receptor agonism by FAP; P07550; Am2.2-beta2AR cells, FAP receptor internalization, flow cytometry; reference of the scale not given here; response, % (concentration not given with the values); 340,000 compounds, 0.43% hits; AID 504454;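 active means response above a set limit, near 3 SD of response in nonfluorescent compounds, cut at about 42% in these data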;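 further: stock transfer was 100 nL into about 11 µL; a reference agonist was the positive control; negative values mostly stem from fluorescent compounds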
rRNA inh HTS: inhibits bacterial ribosomal RNA function over humanized ribosomes | E. coli WT GFP vs humanized-ribosome RFP mutants, fluorescence, 24 h; stronger effect = lower value; DMSO median 0, no signal -100 | GFP signal change (wild-type ribosome), % (test concentration not listed) | 350,000 compounds, 1.6% hits | AID 720706;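 active means significant combined selectivity score with lowered wild-type GFP, culture density cut under 30%, mutant RFP and density less affected; inactive means any of these conditions unmet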; further: one replicate is shown; some compounds called inactive have numbers as strong as hits
Ecoli growth: blocks Escherichia coli growth; OD600 absorbance (concentration not given with the values); AID 1053175; 330,000 compounds, 0.21% hits; OD600, 23 h; stronger effect = lower value;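 active means OD600 absorbance below the run mean of sample wells minus 3.6 SD, in any replicate, cut at about 0.56 in these data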;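 further: stock transfer was 300 nL into about 60 µL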
ALR H2O2 inh: inhibitors of human sulfhydryl oxidase ALR | AID 485317 | purified ALR, DTT oxidation, H2O2 HRP-luminol luminescence | inhibition, % (no concentration beside the values) | 290,000 compounds, 3.8% hits | P55789;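 active means mean and each replicate at 75% or more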;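 further: stock transfer was 7.5 nL into about 7.5 µL; 0% = neutral wells and 100% = wells with inactivated enzyme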
Target sequence (P55789 whole entry, looked up): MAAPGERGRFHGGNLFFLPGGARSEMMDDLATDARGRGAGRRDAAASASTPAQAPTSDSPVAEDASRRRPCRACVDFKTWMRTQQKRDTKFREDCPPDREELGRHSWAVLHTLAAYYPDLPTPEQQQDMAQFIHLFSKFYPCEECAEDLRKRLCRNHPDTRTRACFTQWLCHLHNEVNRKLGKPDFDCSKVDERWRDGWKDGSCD
FGF22 binding: shifts melting point of recombinant human FGF22 | Q9HCT0 | recombinant FGF22 thermal shift, SYPRO orange fluorescence; percent of sucrose octasulfate shift, DMSO zero | calls only at 9.99 µM | 340,000 compounds, 1.5% hits | AID 651658;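 active means melting point raised past a set limit in the mean and every replicate; three in four hits are not shown here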
Target sequence (Q9HCT0 whole entry, looked up): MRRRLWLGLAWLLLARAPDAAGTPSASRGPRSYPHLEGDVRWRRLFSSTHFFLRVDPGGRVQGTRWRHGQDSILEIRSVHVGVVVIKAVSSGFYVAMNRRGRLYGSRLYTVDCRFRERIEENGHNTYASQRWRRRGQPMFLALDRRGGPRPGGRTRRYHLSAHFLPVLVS
rRNA inh HTS OD600: also measured in rRNA inh HTS; calls as there; OD600 change, %; measured here: OD600 growth;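 optical density of the mix in the first replicate; 0 = DMSO median and -100 = no signal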
rRNA inh HTS RFP: also measured in rRNA inh HTS; calls as there; RFP signal change, %; measured here: RFP humanized mutant strains;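 first replicate; 0 = DMSO median and -100 = no signal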
* marks the source's active call; other numbers are inactive results; i = inactive; nt = not tested or not shown; & = joins results of further samples. An excerpt, so the mix of outcomes need not match the whole.

SMILES	UCH37 DUB inh	HNF4A DNA FP	B2AR ag	rRNA inh HTS	rRNA inh HTS OD600	rRNA inh HTS RFP	Ecoli growth	ALR H2O2 inh	FGF22 binding
CC1(C)CC(=O)c2cc(OCC(=O)N3CCOCC3)ccc2O1	i	2.0	1.8	nt	nt	nt	0.694	-1.8	nt
CCOC(=O)c1c(NC(=O)CSc2nnc3c(Cl)cc(Cl)cn23)sc2c1CCC2	5.5	2.2	-3.3	nt	nt	nt	0.683	-2.8	nt
COc1cccc(CNCc2ccc(SC)cc2)c1OC	1.6	-0.3	1.6	4.2	4.3	2.7	0.686	-14.8	i
C[C@@H]1CN([C@@H](C)CO)C(=O)CCCn2nncc2CO[C@H]1CN(C)S(=O)(=O)c1ccc(-c2ccccc2)cc1	nt	1.4	nt	-3.3&-4.1	-4.4&-8.0	-1.3&4.8	nt	nt	i
Cc1ccc(S(=O)(=O)N(C)c2ccc(OCC(=O)OCc3cccc(Br)c3)cc2)cc1	3.9	-0.7	8.3	5.3	7.1	-2.9	0.729	nt	i
CCN(CC)c1ccc(C(=O)NC(=S)Nc2cc(S(=O)(=O)N3CCOCC3)ccc2-n2cncn2)cc1	7.6	-0.4	-2.5	nt	nt	nt	0.62	1.9	nt
CN(C)C(=O)CCc1ccc2c3c([nH]c2c1)[C@]1(C)[C@@H](C(=O)N2CCCCC2)C[C@H](CC(=O)NCc2cccc(C(F)(F)F)c2)C(=O)N1CC3	4.4	1.0	-1.3	-2.2	-10.9	1.2	0.703	nt	i
C(=N\Nc1nc2ccccc2[nH]1)/c1cccs1	nt	2.0	9.0	nt	nt	nt	nt	98.7*	nt
CCOC(=O)C(NC(=O)c1ccccc1OCC)(Nc1ncccn1)C(F)(F)F (configuration not stated)	3.0	0.1	5.5	nt	nt	nt	0.77	-2.1	nt
COC(=O)COc1ccc(C(c2c(C)[nH][nH]c2=O)c2c(C)[nH][nH]c2=O)cc1	5.3	2.8	-1.8	14.0	9.8	-1.1	0.694	22.8	i
Cc1[nH]c(=O)[nH]c(=O)c1CSCC(=O)OCC(=O)c1ccc(Br)cc1	0.2	0.8	2.3	19.5	8.9	0.9	0.702	-6.9	i
CC1=C(C(=O)O)N2C(=O)C(NC(=O)c3ccn(C)n3)C2SC1 (configuration not stated)	5.4	-3.4	0.5	nt	nt	nt	0.697	-5.8	nt
Cc1nnc(SCC(=O)Nc2ccc(-c3nc4ccccc4s3)cc2)s1	-44.2	-5.6	-12.8	nt	nt	nt	0.642	-9.0	i
O=C(c1ccc2c(c1)OCO2)C1CCCN(Cc2cn[nH]c2-c2ccccc2)C1 (configuration not stated)	-26.6	-1.3	-4.7	-1.4	-0.9	-0.9	0.717	-12.3	i
COc1ccccc1N=Nc1[nH]c2ccc(C)cc2c1O	6.2	4.8	-1.9	nt	nt	nt	0.727	-7.3	nt
CCOCCCNC(=O)c1oc2ccc3c(c2c1C)C(O)CC(C)(C)O3 (configuration not stated)	-43.6	-1.1	-1.5	-5.0	-1.9	-0.5	0.674	-9.5	i
CCOC(=O)N1CCN(Cc2cc(=O)oc3cc4c(cc23)CCC4)CC1	-1.9	1.9	-2.9	nt	nt	nt	0.698	2.3	nt
CCOc1ccc(CSCCNC(=S)Nc2ccccc2)cc1	3.3	3.5	-7.4	nt	nt	nt	0.615	1.1	nt
CC(=O)Nc1ccc(S(=O)(=O)N/N=C/c2ccc(C)o2)cc1	nt	-7.1	-2.1	9.2	1.4	1.0	nt	18.2	i
CN1CCN(S(=O)(=O)c2ccc(C(=O)Nc3ccccc3)cc2)CC1	3.7	-0.9	-6.5	nt	nt	nt	0.669	-4.4	nt
Cc1ccc(NC(=O)Nc2ccc(Cl)cn2)cc1	3.8	-1.4	-4.0	8.4	1.5	0.0	0.705	nt	i
CCn1c(=O)cc(OCC(=O)NCCc2cccc(C)c2)c2ccccc21	1.2	-2.0	-4.1	nt	nt	nt	0.643	-0.9	nt
COc1ccccc1C(=O)Nc1ccc(OC(C)C(=O)N2CCOCC2)cc1 (configuration not stated)	5.2	2.2	2.9	8.5	6.2	-0.6	0.703	-4.2	i
S=C(Nc1ccccc1)Nc1cccc(Br)c1	3.8	2.4	3.2	-26.2	-34.1	0.0	0.631	-0.7	i
COc1cccc(-c2csc(N3CCN(C(=O)Nc4ccc(Cl)cc4)CC3)n2)c1	0.9	7.0	4.3	-58.6	-80.3	-25.5	0.632	-2.5	i

Profiles as entered above. Screens in order: UCH37 DUB inh, HNF4A DNA FP, B2AR ag, rRNA inh HTS, rRNA inh HTS OD600, rRNA inh HTS RFP, Ecoli growth, ALR H2O2 inh, FGF22 binding
Results for CCOc1ccc(CSCCNC(=S)Nc2ccccc2)cc1 → 3.3, 3.5, -7.4, nt, nt, nt, 0.615, 1.1, nt
Results for CCOCCCNC(=O)c1oc2ccc3c(c2c1C)C(O)CC(C)(C)O3 (configuration not stated) → -43.6, -1.1, -1.5, -5.0, -1.9, -0.5, 0.674, -9.5, i
Results for S=C(Nc1ccccc1)Nc1cccc(Br)c1 → 3.8, 2.4, 3.2, -26.2, -34.1, 0.0, 0.631, -0.7, i

7 entries out of the list, ordered by formula weight, ascending.
SMILES	UCH37 DUB inh	HNF4A DNA FP	B2AR ag	rRNA inh HTS	rRNA inh HTS OD600	rRNA inh HTS RFP	Ecoli growth	ALR H2O2 inh	FGF22 binding
C(=N\Nc1nc2ccccc2[nH]1)/c1cccs1	nt	2.0	9.0	nt	nt	nt	nt	98.7*	nt
COc1cccc(CNCc2ccc(SC)cc2)c1OC	1.6	-0.3	1.6	4.2	4.3	2.7	0.686	-14.8	i
CC1=C(C(=O)O)N2C(=O)C(NC(=O)c3ccn(C)n3)C2SC1 (configuration not stated)	5.4	-3.4	0.5	nt	nt	nt	0.697	-5.8	nt
CCOCCCNC(=O)c1oc2ccc3c(c2c1C)C(O)CC(C)(C)O3 (configuration not stated)	-43.6	-1.1	-1.5	-5.0	-1.9	-0.5	0.674	-9.5	i
O=C(c1ccc2c(c1)OCO2)C1CCCN(Cc2cn[nH]c2-c2ccccc2)C1 (configuration not stated)	-26.6	-1.3	-4.7	-1.4	-0.9	-0.9	0.717	-12.3	i
Cc1nnc(SCC(=O)Nc2ccc(-c3nc4ccccc4s3)cc2)s1	-44.2	-5.6	-12.8	nt	nt	nt	0.642	-9.0	i
Cc1[nH]c(=O)[nH]c(=O)c1CSCC(=O)OCC(=O)c1ccc(Br)cc1	0.2	0.8	2.3	19.5	8.9	0.9	0.702	-6.9	i

More records
SMILES	UCH37 DUB inh	HNF4A DNA FP	B2AR ag	rRNA inh HTS	rRNA inh HTS OD600	rRNA inh HTS RFP	Ecoli growth	ALR H2O2 inh	FGF22 binding
CCCCN(CC(O)COc1cccc(C)c1)CC(O)COc1cccc(C)c1 (configuration not stated)	2.8	4.2	-1.2	-54.9	-79.8	-26.1	0.621	nt	i
Cc1ccc(Cn2nc(C)c(NC(=O)c3nn(C)cc3Cl)c2C)cc1	1.1	5.3	-94.0	nt	nt	nt	0.707	-9.7	nt
CCSc1nnc(NC(=O)NCC(F)(F)F)s1	6.1	0.4	4.0	-6.9	-2.3	1.3	0.659	-2.9	nt
CCCCS(=O)(=O)NC1=NCN(CC)CN1	2.0	-2.5	-0.8	11.9	3.0	-3.2	0.664	nt	i
O=S(=O)(c1ccccc1)N1CCN(Cc2ccccc2C(F)(F)F)CC1	4.3	-0.9	0.0	nt	nt	nt	0.702	-8.8	nt
Cc1ccc(C2(C)NC(=O)N(CC(=O)Nc3cc(C)on3)C2=O)cc1 (configuration not stated)	0.8	0.4	-0.5	13.3	12.0	-3.9	0.708	-4.6	i
O=C(O)/C=C/C(=O)Nc1cccnc1	-3.1	0.3	4.1	nt	nt	nt	0.619	-4.7	nt
CC1CCc2sc3ncn4nc(C(=O)NCc5ccco5)nc4c3c2C1 (configuration not stated)	-4.6	9.0	1.8	nt	nt	nt	0.643	2.6	nt
CSc1ccc(CN2CCC2(C)C(=O)NCc2ccccc2Br)cc1 (configuration not stated)	nt	2.7	nt	-55.0	-73.2	-12.6	nt	nt	i
Cc1ccc(-n2c(CC#N)n[nH]c2=S)c(C)c1	4.4	-0.1	1.8	9.8	5.8	2.4	0.696	66.0	i
CCOC(=O)C1C(=O)CC(C)(O)C(C(=O)OCC)C1c1ccc(NC(C)=O)cc1 (configuration not stated)	2.3	4.9	0.9	-2.1	-1.3	-1.7	0.67	2.4	i
COc1ccc(NC(=O)C2=Cc3cccc(OC)c3OC2)cc1	6.5	0.0	1.8	-1.5	-0.4	1.2	0.621	nt	nt
O=C(CSc1cn(CC(=O)N2CCCC2)c2ccccc12)NCC1CCCO1 (configuration not stated)	3.4	2.4	6.6	5.3	4.0	-0.1	0.682	-4.0	nt
COC(=O)Nc1ccc(NC(C)=O)cc1	2.0	-0.5	-0.4	17.1	15.9	4.6	0.663	-21.4	nt
COCCCn1c(=O)c2ccccc2n(CC(=O)Nc2ccc3c(c2)OCCO3)c1=O	2.6	2.0	-0.5	2.2	4.2	-1.7	0.723	-3.9	i
O=c1oc(/C=C/c2ccc([N+](=O)[O-])s2)nc2ccccc12	2.3	9.4	-133.7	nt	nt	nt	0.702	49.0	nt
COc1ccc(Cn2nnc3c(=O)[nH]c(C(=O)NCCc4ccc(F)cc4)nc32)cc1OC	6.4	0.2	-2.2	-14.2	-15.2	-2.2	0.767	93.7*	i
Cc1ccccc1C(=O)NNc1ccc([N+](=O)[O-])cc1	10.4	3.4	-6.3	-2.5	-8.8	-1.0	0.772	0.2	i
Cc1nn(CCCC(=O)NCc2ccccc2)c(C)c1[N+](=O)[O-]	3.7	-3.2	-0.6	-5.8	-5.0	-4.4	0.692	-1.9	i
Cc1ccc(C(=O)c2ccc([N+](=O)[O-])cc2)c(C)c1	3.7	1.1	-1.9	nt	nt	nt	0.767	-18.0	nt
CCOc1cc(/C=C(\C#N)c2nc3ccccc3[nH]2)ccc1OC(C)C(=O)O (configuration not stated)	5.7	0.5	5.6	3.4	12.9	3.0	0.627	98.0*	i
COc1cccc(CNC(=O)c2ccc(C)c(NC3=NC4CS(=O)(=O)CC4S3)c2)c1 (configuration not stated)	-1.0	-0.1	-0.8	-0.9	-13.3	2.2	0.78	-9.0	i
Cn1c(SCC(=O)N/N=C/c2ccc(O)c(O)c2)nc2ccccc21	nt	4.3	0.0	-16.2	-6.6	-2.6	nt	98.9*	i
COc1ccccc1CNC(=O)CN(c1ccc(C)cc1)S(=O)(=O)c1c(C)nn(C)c1C	4.3	3.0	-5.2	-18.6	-19.9	2.3	0.734	-7.1	nt
COc1ccc(CC/C(=N\O)C2(O)CCCCC2)cc1	nt	-4.8	13.1	nt	nt	nt	nt	-4.0	nt
